Screening data: PubChem BioAssay, Johns Hopkins Ion Channel Center
KCNQ2 block = KCNQ2 potassium channel inhibitors, primary screen, cell-based, CHO-K1, FluxOR thallium flux, B-score (AID 2156); Potassium voltage-gated channel subfamily KQT member 2 (Rattus norvegicus), O88943; 20 min; hits give low values; only compounds with negative scores are shown here; some inactives read as strong as hits; B-score at 10 µM; hit rate 1.1% among 310,000;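 active = fluorescence ratio B-score at most minus 3 library SDs, with starting brightness B-score within 2 library SDs, cut at about -5.5 in these data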
Target sequence (O88943 whole entry, looked up): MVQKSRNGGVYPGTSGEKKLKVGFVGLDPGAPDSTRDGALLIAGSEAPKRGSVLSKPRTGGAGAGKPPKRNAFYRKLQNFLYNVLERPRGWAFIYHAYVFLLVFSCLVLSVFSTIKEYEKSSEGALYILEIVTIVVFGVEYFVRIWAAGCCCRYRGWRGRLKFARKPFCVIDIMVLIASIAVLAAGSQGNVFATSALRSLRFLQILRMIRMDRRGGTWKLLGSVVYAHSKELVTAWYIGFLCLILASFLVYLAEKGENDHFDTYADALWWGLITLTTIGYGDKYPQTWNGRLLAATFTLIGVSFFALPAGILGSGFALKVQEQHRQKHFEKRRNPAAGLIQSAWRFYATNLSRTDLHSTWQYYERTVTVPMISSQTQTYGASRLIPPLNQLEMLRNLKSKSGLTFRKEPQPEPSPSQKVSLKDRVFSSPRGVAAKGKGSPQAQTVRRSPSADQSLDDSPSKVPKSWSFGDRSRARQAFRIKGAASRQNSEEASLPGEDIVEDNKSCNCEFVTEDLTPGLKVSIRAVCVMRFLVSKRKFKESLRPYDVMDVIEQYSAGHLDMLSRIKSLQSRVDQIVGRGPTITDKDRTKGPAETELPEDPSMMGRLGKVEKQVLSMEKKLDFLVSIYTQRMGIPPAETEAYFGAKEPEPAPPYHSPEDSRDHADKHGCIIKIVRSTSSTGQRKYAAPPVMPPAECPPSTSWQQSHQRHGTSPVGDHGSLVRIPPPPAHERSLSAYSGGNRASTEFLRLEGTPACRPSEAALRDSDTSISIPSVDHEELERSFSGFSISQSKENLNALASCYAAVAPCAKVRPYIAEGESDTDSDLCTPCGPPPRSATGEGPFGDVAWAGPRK
KCNQ2 block baseline = second read-out of KCNQ2 block, no call of its own (marks repeat the call); B-score; measured here: initial fluorescence intensity artifact check;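 brightness before thallium and not channel activity; 0 = typical well and far values either way flag optical interference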
An asterisk follows results filed as active; i = inactive. Not all compounds are listed; rates above refer to the full screens.

SMILES	KCNQ2 block	KCNQ2 block baseline
O=C(COC(=O)C1CCN(S(=O)(=O)c2ccc3c(c2)OCCO3)CC1)Nc1ccc(C(F)(F)F)cc1	i	0.42
COc1cccc(-c2cccc(NC(=O)C3CCN(Cc4nccs4)CC3)c2)c1	i	0.67
O=C(Nc1ccccc1N1CCCCC1)c1cccc(Cl)c1	i	1.6
Cn1c(=O)c2cc(S(=O)(=O)NC(C(=O)Nc3cccc(F)c3)c3ccccc3)ccc2n(C)c1=O (stereo not drawn)	i	0.46
CCn1c(SCc2ccccc2)nnc1C1CCCCC1	i	0.4
CNc1nc(SC)n(C)c(=O)c1N=O	i	-0.71
CCn1cc(C(=O)NCCc2ccccc2)c(=O)c2cc(F)c(N3CCN(C)CC3)cc21	i	-0.96
Cc1ccc(NC(=O)C(C)OC(=O)c2n[nH]c3ccccc23)cc1 (stereo not drawn)	i	3.2
Cc1ccc([N+](=O)[O-])cc1NC1CC(O)C(CO)O1 (stereo not drawn)	i	-0.46
COC(=O)Nc1nc2ccc(C(=O)c3cccs3)cc2[nH]1	i	2.1
CC(OC(=O)c1ccc(OCC2CCCO2)cc1)C(=O)N(C)Cc1ccccc1 (stereo not drawn)	i	2.2
CCN(Cc1ccncc1)Cc1ccc(Br)cc1	i	-0.2
COc1ccccc1NC(=O)COc1ccc(/C=N/n2cnnc2)cc1OC	i	-1.1
O=C(CN1CCN(c2ccc([N+](=O)[O-])cc2)CC1)Nc1nccs1	i	-0.43
CC(NC(=O)c1ccc(CS(C)(=O)=O)cc1)C1CC2CCC1C2 (stereo not drawn)	i	1.3
CN(C)CC1CCCCC1OC(=O)/C=C/c1ccccc1 (stereo not drawn)	i	0.94
C=CCn1c(SCc2ccc(C(=O)O)cc2)nc2sc(C)c(C)c2c1=O	i	2.1
Nc1ccc2nc(-c3ccccc3)sc2c1	i	0.79
COc1ccccc1C(c1nnnn1Cc1ccccc1)N1CCN(C2CCCC2)CC1 (stereo not drawn)	i	-1
Cc1cc2nc(SCCOC(=O)Nc3ccc(Cl)cc3)nc(C)c2cc1C	i	0.3
COc1cc(C2/C(=C(\O)c3ccc4c(c3)CC(C)O4)C(=O)C(=O)N2CCCn2ccnc2)ccc1O (stereo not drawn)	i	1.3
COc1ccccc1Nc1cc(C(=O)NCCCN2CCOCC2)c2ccccc2n1	i	-0.23
COc1cc(C(=O)NCCN2C(=O)S/C(=C\c3cccs3)C2=O)cc(OC)c1OC	i	0.88
CCOC(=O)c1c(C)oc2cc(Br)c(OC(=O)N3CCOCC3)cc12	i	1.1
CCCc1ccc(C#N)c(SC2CC(=O)N(c3ccc(OC)cc3)C2=O)n1 (stereo not drawn)	i	0.01

Next part; the last five above are carried over.
SMILES	KCNQ2 block	KCNQ2 block baseline
COc1cc(C2/C(=C(\O)c3ccc4c(c3)CC(C)O4)C(=O)C(=O)N2CCCn2ccnc2)ccc1O (stereo not drawn)	i	1.3
COc1ccccc1Nc1cc(C(=O)NCCCN2CCOCC2)c2ccccc2n1	i	-0.23
COc1cc(C(=O)NCCN2C(=O)S/C(=C\c3cccs3)C2=O)cc(OC)c1OC	i	0.88
CCOC(=O)c1c(C)oc2cc(Br)c(OC(=O)N3CCOCC3)cc12	i	1.1
CCCc1ccc(C#N)c(SC2CC(=O)N(c3ccc(OC)cc3)C2=O)n1 (stereo not drawn)	i	0.01
COc1ccccc1/C=C(\C#N)C(=O)c1cccn1C	i	-0.13
CC(C)(C)n1nnnc1C(c1ccncc1)N1CCN(C2CCCCC2)CC1 (stereo not drawn)	i	1.3
COC(C[C@H]1O[C@H]1[C@H](O)COCc1ccccc1)OC	i	0.08
O=C(NCCCN1CCCC1)Nc1ccccc1[N+](=O)[O-]	i	0.07
CC(=O)Nc1ccc(S(=O)(=O)NCCC(=O)NNC(=O)c2ccncc2)cc1	i	-0.15
COC(=O)c1ccc(CN(c2ccccn2)S(=O)(=O)c2ccccc2)cc1	i	-1.4
CCN(CC)CC(C)CNC(=O)CN1C(=O)CSc2ccc(S(=O)(=O)N3CCOCC3)cc21 (stereo not drawn)	i	3.4
CCC(C)NC(=O)CNC(=S)N(Cc1ccccc1F)C1CCCCC1 (stereo not drawn)	i	0.41
CCOC(=O)N1N=C(c2ccc(C)cc2)CC1(O)C(F)(F)F (stereo not drawn)	i	0.26
COc1ccc2ccccc2c1-c1sc(Nc2ccccc2)n[n+]1-c1ccc(F)cc1	i	-0.74
Cc1ccc(-n2c(Cc3ccccc3)nnc2SCC(=O)NNC(=O)Cc2ccccc2)cc1	i	-1.1
COc1ccc(S(=O)(=O)N2CCC(C(=O)NCC3CCCO3)CC2)cc1C (stereo not drawn)	i	-0.58
Cc1cc(OCCCCOc2ccc(C#N)cc2)ccc1[N+](=O)[O-]	-6.1*	0.49*
Cc1ccccc1CSc1nncn1N	i	-0.01
COc1ccc(-c2oc3ccccc3c2C(=O)OCc2ccc(O)cc2)cc1	i	2
COc1ccc(CNC(=O)c2ccc3ccccc3n2)cc1	i	0.01
O=S1(=O)CC=C(CSc2nc3ccccc3[nH]2)C1	i	0.34
COc1ccc(NC(=O)CSc2nnc3c4c(nc(-c5ccccc5)n23)CC(C)(C)OC4)cc1	i	-0.61
COc1ccc(S(=O)(=O)N2CCOC23CCN(S(=O)(=O)c2ccc(F)cc2C)CC3)cc1	i	-1.4
C=CCn1c(SCc2csc(-c3ccc(C)cc3)n2)nnc1-c1ccccc1OC	i	-0.5
CCCc1ccc(OCCNC(C)=O)cc1	i	0.63
CC1=C(C(=O)N2CCOCC2)C(c2ccsc2)C2=C(CCCC2=O)N1 (stereo not drawn)	i	-0.73
CCC(C)(C)NC(=O)c1sccc1Oc1ccc(F)cc1[N+](=O)[O-]	i	-0.02
N#CC1(c2ccccc2)CCN(S(=O)(=O)c2ccc(OC(F)(F)F)cc2)CC1	i	1.1
COc1ccc(N/N=C(\C=N\O)C(=O)c2ccc(OC)cc2)cc1	i	2.5

In the list so far, these contain bromine.
SMILES	KCNQ2 block	KCNQ2 block baseline
CCN(Cc1ccncc1)Cc1ccc(Br)cc1	i	-0.2
CCOC(=O)c1c(C)oc2cc(Br)c(OC(=O)N3CCOCC3)cc12	i	1.1

Other structures
SMILES	KCNQ2 block	KCNQ2 block baseline
COc1ccccc1OCCCn1c(=O)oc2ccccc21	i	1.2
Cn1c(=O)oc2cc(S(=O)(=O)Nc3ccc4c(c3)OCCO4)ccc21	i	0.74
COc1ccccc1N1CCN(C(=O)c2c(-c3c(Cl)cccc3Cl)noc2C)CC1	i	-0.64
O=C(Nc1ccccc1C(=O)O)c1ccc(Br)c(S(=O)(=O)NCc2ccccc2)c1	i	-2.3
Cc1ccc(S(=O)(=O)NC(=NCc2ccccc2)c2ccc(F)cc2)cc1	i	-0.03
COc1ccc(C(C)(C)C)cc1NC(=O)c1ccc2ncsc2c1	i	1.3
Cn1nnnc1SCc1ccc([N+](=O)[O-])cc1	i	0.58
Cc1sc2ncnc(N3CCC(C(=O)N(CC(C)C)c4nc5ccccc5s4)CC3)c2c1C	-6.2*	-0.08*
Cc1ccc(/C=C2\SC(=S)N(CCCC(=O)NC3CCCC3)C2=O)cc1	i	-0.13
COc1cccc(NC(=O)C(OC(=O)c2cnc(C)cn2)c2ccccc2)c1 (stereo not drawn)	i	-0.45
CCC(C)[C@H](N)c1nnc(SCC(=O)Nc2cccc(Cl)c2)o1 (stereo partly drawn)	i	0.32
CCCC[C@H]1COCCS(=O)(=O)N1Cc1ccccc1F	i	-0.5
Cc1ccccc1Nc1nc(N)nc(CSc2nnc3sc4ccccc4n23)n1	i	0.55
O=C(CNc1ccccc1Cl)N/N=C1\CCCc2ccccc21	i	2.2
Cc1ccc(Cl)cc1N1CCN(C(=O)c2ccc3c(c2)CCN3S(C)(=O)=O)CC1	i	-0.02
CCCOc1ccc(-c2cn3ccccc3n2)cc1[N+](=O)[O-]	i	-0.54
CC(=NC1CC1)C1=C(O)c2ccccc2C1=O	i	1.3
Cc1cc(F)ccc1S(=O)(=O)NCC(c1cccnc1)N1CCc2ccccc21 (stereo not drawn)	i	0.02
CCOC(=O)c1c(-c2ccc(C)o2)csc1N	i	-2.5
Cc1ccc(CSc2nnc3ccc(-c4ccncc4)nn23)cc1	i	-0.73
O=S(=O)(c1ccc(Cl)cc1Cl)n1ccc2cccnc21	i	-1.2
O=C(Nc1nnc(-c2ccccc2)s1)c1ccc(F)cc1	i	-0.91
COc1cc(OC)cc(C(=O)NCC(=O)NC(C)CCc2ccccc2)c1 (stereo not drawn)	i	-0.14
CN(C)Cc1c(O)ccc2c(=O)c(-c3ccccc3Cl)c(C(F)(F)F)oc12	i	0.52
Fc1ccc(C(c2nnnn2C2CCCCC2)N2CCCC2)cc1 (stereo not drawn)	i	-0.03

Complete entries, quoted from the list. Order of values: KCNQ2 block	KCNQ2 block baseline
`Cc1ccccc1Nc1nc(N)nc(CSc2nnc3sc4ccccc4n23)n1` is entered as i	0.55
`O=C(Nc1ccccc1C(=O)O)c1ccc(Br)c(S(=O)(=O)NCc2ccccc2)c1` is entered as i	-2.3

(next part)
SMILES	KCNQ2 block	KCNQ2 block baseline
O=C(Nc1cc(-c2nc3ncccc3o2)ccc1Cl)c1ccco1	i	-0.03
CSc1ccc(/C=N/n2c(C)nnc2C)cc1	i	-0.86
CCCc1nc(NC2CCCCC2)c(C#N)c2c1COC(C)(C)C2	i	-0.27
CC(C)CC(NC(=O)OC(C)(C)C)c1cn([C@@H](Cc2ccc(O)cc2)C(=O)N2CCN(C(=O)OC(C)(C)C)CC2)nn1 (stereo partly drawn)	i	-3.4
CCC(=O)Nc1c2c(nn1-c1ccc([N+](=O)[O-])cc1)CS(=O)(=O)C2	i	1.2
O=C(c1ccc(S(=O)(=O)Nc2cccc(C(F)(F)F)c2)cc1)N1CCN(c2ccccc2O)CC1	i	-1.9
Cc1cc(=O)oc2cc(OCC(=O)N3CCC(O)CC3)c(Cl)cc12	i	2.2
NC[C@@H]1O[C@H](C23CC4CC(CC(C4)C2)C3)Cc2c1ccc(O)c2O	-5.8*	0.51*
CN1N=C(c2ccc(F)c(F)c2)CSC1=NCc1ccccc1	i	-0.17
O=C(NC(=S)NCCN1CCOCC1)c1ccc(Cl)cc1Cl	i	0.83
Cn1cc(C(c2ccccc2OCC(=O)O)c2cn(C)c3ccccc23)c2ccccc21	i	0.01
CCn1c(SCC(=O)N(C(C)C)C(C)C)nnc1-c1cc2ccccc2cc1O	i	-1.4
O=C(CCc1nnc(-c2ccc3c(c2)OCO3)o1)NCCc1ccccc1F	i	-0.71
COC(=O)c1ccc(Oc2nc(N3CCCCC3)nc(N3CCOCC3)n2)cc1	i	0.64
COc1ccccc1NC(=O)CCS(=O)(=O)c1ccccc1	i	0.53
COc1ccc(OCCNC(=O)CSc2ccc(C(F)(F)F)cc2[N+](=O)[O-])cc1	i	0.22
CCOC(=O)c1ccccc1NC(=O)c1cc2sccc2n1C	i	-0.75
Cc1ccc(-c2nn(-c3cccc(F)c3)cc2CNCc2cccnc2)o1	i	-0.71
C=CCN1C(=O)N(CC=C)c2cccc3cccc1c23	i	-0.36
O=C1C2CCCN2C(c2ccccc2F)N1c1ccc(F)cc1 (stereo not drawn)	i	-2.6
Cc1cccc(C(=O)NC2CCN(C(=O)N3CCOCC3)CC2)c1	i	-0.02
Cc1ccc(S(=O)(=O)NCC(c2ccccc2)N2CCCCC2)cc1 (stereo not drawn)	i	-0.01
COc1ccc(-n2c(=S)[nH]c3cc(C(=O)NCc4ccco4)ccc3c2=O)cc1OC	i	1.8
Cc1ccc(NC(=O)C2CCCN2S(=O)(=O)c2ccc3c(c2)n(C)c(=O)c(=O)n3C)cc1C (stereo not drawn)	i	1.3
Cc1ccc(N2CC(C(=O)Nc3ccccc3N3CCCC3)CC2=O)cc1 (stereo not drawn)	i	-0.14
New compounds follow
SMILES	KCNQ2 block	KCNQ2 block baseline
O=C(NNC1OC(CO)C(O)C(O)C1O)c1cccnc1 (stereo not drawn)	i	-0.02
Cc1nc(CNC(=O)c2cc(COc3c(F)cccc3F)on2)cs1	i	-0.75
O=S(=O)(c1ccc(Cl)cc1)c1snnc1-c1ccccc1	i	0.66
CC(C)Oc1ccc(N2CC(C(=O)Nc3ccccc3F)CC2=O)cc1 (stereo not drawn)	i	0.65
O=C(c1cccnc1)N1CCN(C(=O)c2cccs2)CC1	i	-1.3
N/C(=N\OC(=O)CCCc1ccccc1)c1ccccc1	i	1.1
O=C(CCc1ccccc1)Nc1ccc(S(=O)(=O)Nc2nccs2)cc1	i	0.27
CN(C)CCCN(C(=O)COc1ccccc1)c1nc2c(F)cccc2s1	i	0.21
COc1ccc(C)cc1NC(=O)C(Sc1nnc(Nc2cc(C)ccc2OC)s1)c1ccccc1 (stereo not drawn)	i	-0.17
O=S(=O)(c1ccc(-c2cnc(C3CC3)o2)cc1)N1CCN(c2ccccc2)CC1	i	1.5
CCc1c(C)nc2ncnn2c1N1CCCC(C(=O)NCc2cccs2)C1 (stereo not drawn)	i	0.01
CC(C)NC(=S)NC(c1ccccc1)(c1ccccc1)c1ccccc1	i	-1.2
Cn1ccc(C(=O)NC(=S)Nc2ccc([N+](=O)[O-])cc2O)n1	i	0.64
Cc1cccc(N(C(=O)c2csnn2)C(C(=O)NC2CCCC2)c2ccncc2)c1 (stereo not drawn)	i	-0.35
CC(C)CC(=O)Nc1nnc(-c2ccco2)s1	i	2.5
O=[N+]([O-])C(=C1Nc2ccccc2N1)C(Cl)=C(Cl)Cl	i	2.6
O=C(OCC#CCSc1nc2ccccc2s1)c1ccco1	i	-0.21

Retrieved by structure from the entries so far (2):
SMILES	KCNQ2 block	KCNQ2 block baseline
CN(C)CCCN(C(=O)COc1ccccc1)c1nc2c(F)cccc2s1	i	0.21
COc1ccc(OCCNC(=O)CSc2ccc(C(F)(F)F)cc2[N+](=O)[O-])cc1	i	0.22
